Screening results (PubChem)
Sa helicase inh: blocks Staphylococcus aureus DNA helicase | hit rate 0.05% among 120,000 | purified S. aureus helicase, fluorescence unwinding assay; about half of the hits fall short of the stated cut | inhibition, %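 (tested at about 80 µM)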;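 active = both duplicates at 50% or more, or one of them with a favoured structure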;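 also: 0% = mean of negative control wells and 100% = mean of positive control wells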
MgrA DNA FP: modulators of Staphylococcus aureus MgrA DNA binding; fluorescence polarization; inhibition, %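 (about 10 µg/mL by stock and volumes)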; hit rate 0.13% among 84,000; AID 602314;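 active = above 50% in either of two replicates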;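 also: 0% = protein plus DNA without compound and 100% = DNA alone without protein; higher means less MgrA bound to DNA so lower polarization; one replicate is shown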
* marks the source's active call; other numbers are inactive results; . = no result given.

| cpd | canonical_smiles | Sa helicase inh | MgrA DNA FP |
| --- | --- | --- | --- |
| 1 | CCN1CCN(C(=O)c2sc3nc4n(c(=O)c3c2C)CCC4)CC1 | 34 | . |
| 2 | O=C(O)CC1Oc2ccccc2NC1=O (stereo unspecified) | 2 | 2.2 |
| 3 | O=c1cc(C(F)(F)F)nc2c(-c3ccccc3)c(C(F)(F)F)[nH]n12 | . | -1.0 |
| 4 | O=C(CCn1c(=O)sc2ccccc21)n1c(=O)sc2ccccc21 | 19 | 5.0 |
| 5 | CCOC(=O)c1c(/C=C2\C(=O)Nc3ccccc32)c(C)n(Cc2cccs2)c1C | 16 | . |
| 6 | O=c1cc(O)c2sc3nc4c(c(C(F)(F)F)c3c2[nH]1)CCC4 | 16 | -1.9 |
| 7 | O=C(N/N=C/c1ccccc1)c1cc(-c2ccccc2)n[nH]1 | 16 | . |
| 8 | Cc1nc(-c2ccc(S(=O)(=O)N3CCCN(C(=O)OC(C)(C)C)CC3)s2)cs1 | -13 | . |
| 9 | CCSC1=C(C#N)C(=O)NC(c2ccc(O)cc2)S1 (stereo unspecified) | -12 | . |
| 10 | Cc1ccccc1NS(=O)(=O)c1ccc2[nH]cc(C(=O)NC3CCCC3)c(=O)c2c1 | 5 | . |
| 11 | Cc1cc(=O)oc2c1cc(NC(=O)c1ccccc1)c1occ(OC(=O)c3ccccc3)c12 | 15 | -0.8 |
| 12 | N#Cc1c(-c2cccc(O)c2)c(C#N)c2nc3ccccc3n2c1N | 0 | 1.6 |
| 13 | COc1ccc2c(c1)CC/C(=C\c1ccc(C)o1)C2=O | . | 0.8 |
| 14 | CC1CCCCC1NC(=O)COc1ncnc2sccc12 (stereo unspecified) | 11 | . |
| 15 | C=C(C)CSc1nc(C)cc(C)c1C#N | 4 | 0.9 |
| 16 | CC(C)C(=O)Nc1c(C(=O)c2ccc(Br)cc2)oc2ccccc12 | 17 | . |
| 17 | COC(=O)N/N=C\c1c(C)n(C)c2ccccc12 | 35 | . |
| 18 | N#CC(C#N)=C(N)COc1cccc(C(F)(F)F)c1 | . | -0.4 |
| 19 | COC(=O)c1cc(S(=O)(=O)Nc2nn(C)c3ccccc23)oc1C | . | 0.0 |
| 20 | CC(CC(=O)Nc1ccc(Cl)cc1)S(=O)(=O)c1ccc(Cl)cc1 (stereo unspecified) | . | -1.1 |
| 21 | O=C(/C=C/c1cccs1)OCC(=O)c1cc2ccccc2o1 | -20 | . |
| 22 | Cc1ccc(OCc2cn3cccnc3n2)cc1 | 0 | . |
| 23 | CN(Cc1ccccc1)C(=O)CCCn1c(=O)[nH]c2cc(Cl)ccc2c1=O | 6 | . |
| 24 | C/C(=N\O)c1cc2ccc(O)cc2oc1=O | -35 | . |
| 25 | N#Cc1ncoc1-c1ccc(Cl)cc1 | . | -0.6 |

More records:
| cpd | canonical_smiles | Sa helicase inh | MgrA DNA FP |
| --- | --- | --- | --- |
| 26 | Nn1c(-c2cccs2)n[nH]c1=S | 5 | . |
| 27 | O=C(Oc1ccc(Br)cc1)c1cccnc1 | -16 | 2.5 |
| 28 | COc1ccc(N(Cc2nc3ccccc3s2)S(=O)(=O)c2ccc3c(c2)OCCO3)cc1 | -7 | . |
| 29 | Cc1ccc(Sc2ncccc2C(=O)O)cc1 | . | -1.5 |
| 30 | CSCC(=O)Nc1ccc(C)cc1Br | -15 | . |
| 31 | Cc1nn(-c2ccccc2)c2sc(C(=O)NC3CCS(=O)(=O)C3)cc12 (stereo unspecified) | 9 | . |
| 32 | O=C(O)C1CCCN1c1ncccn1 (stereo unspecified) | 5 | -2.1 |
| 33 | CN(C(=O)c1c(F)cccc1Cl)C1CCCCC1 | . | -0.5 |
| 34 | NS(=O)(=O)c1ccc(NS(=O)(=O)/C=C/c2ccccc2)cc1 | 25 | 0.6 |
| 35 | O=C(/C=C/c1cccs1)Nc1ccc(F)cc1F | -12 | 0.4 |
| 36 | CCOC(=O)c1cnn(-c2ccccc2)c1-n1cccc1 | . | -0.9 |
| 37 | O=C1Nc2ccc(S(=O)(=O)NCc3ccc4c(c3)OCO4)cc2C1C1CCCC1 (stereo unspecified) | -13 | . |
| 38 | O=S(=O)(Cc1ccc(Cl)cc1)NCc1cccs1 | . | -2.3 |
| 39 | O=C(CSc1nccc(-c2cccs2)n1)c1ccc2c(c1)OCCCO2 | . | -0.1 |
| 40 | COC(=O)/C=C1\S/C(=N\S(=O)(=O)c2ccccc2)N(c2ccccc2)C1=O | 15 | 1.7 |
| 41 | COc1ccc(CCNC(=O)c2cnn3ccccc23)c(OC)c1OC | 11 | 4.2 |
| 42 | CCOc1ccccc1C(=O)NCC(=O)O | 16 | -1.8 |
| 43 | CCC/C(O)=C1/C(=O)CC(c2ccccc2)CC1=NCc1ccccc1 (stereo unspecified) | 4 | 0.5 |
| 44 | CCN1CCCC1CNC(=O)Nc1c[nH]c2ccc(OC)cc2c1=O (stereo unspecified) | 13 | -1.8 |
| 45 | c1ccc2c3nnc4n(c-3nc2c1)CCS4 | -15 | . |
| 46 | CN(CC(=O)Oc1ccc2c(c1)OCO2)S(=O)(=O)c1ccc(F)cc1 | -6 | . |
| 47 | O=C(O)c1scc2c1OCCO2 | 7 | 1.0 |
| 48 | N=c1scc(-c2ccc(Cl)cc2)n1-c1cc(Cl)c(Cl)cc1Cl | . | -2.2 |
| 49 | CC(C)CNc1nc2ccccc2s1 | -16 | -2.0 |
| 50 | COc1ccc(C(=O)N2CCCC2)cc1S(=O)(=O)N1CCCc2ccccc21 | -11 | . |

Next results follow:
| cpd | canonical_smiles | Sa helicase inh | MgrA DNA FP |
| --- | --- | --- | --- |
| 51 | CCOc1ccc(N2C(=O)/C(=C/c3ccc(OCC(=O)O)c(OC)c3)C(=O)NC2=S)cc1 | . | 15 |
| 52 | O=C(O)c1ccc(Nc2ccnc3cc(Cl)ccc23)cc1 | 14 | 0.6 |
| 53 | O=C(O)c1cccc(CSc2cccs2)c1 | . | 0.5 |
| 54 | COc1ccccc1C(=O)n1cc(C)cn1 | -6 | -0.7 |
| 55 | CCC(C)CCCCC(=O)NC(CCN)C(=O)NC(C(=O)NC(CCN)C(=O)NC1CCNC(=O)C(C(C)O)NC(=O)C(CCN)NC(=O)C(CCN)NC(=O)C(CC(C)C)NC(=O)C(Cc2ccccc2)NC(=O)C(CCN)NC1=O)C(C)O (stereo unspecified) | . | 1.8 |
| 56 | Cc1nc(/C(N)=N/OC(=O)c2cc3c([nH]c4ccccc43)c(C)n2)no1 | 14 | . |
| 57 | CSc1nnc(-c2ccccc2NC(=O)/C=C/c2ccccc2)o1 | 0 | . |
| 58 | Nc1ccccc1SCc1cc(Cl)cc2c1OCOC2 | . | -2.6 |
| 59 | CNCc1cccc(F)c1 | -11 | . |
| 60 | CCC(=O)Nc1nc2c(s1)CSc1ccccc1-2 | 26 | . |
| 61 | CCCCNC(=O)c1cn(C)c2ccc(S(=O)(=O)N3CCCCC3)cc2c1=O | 0 | . |
| 62 | CN1CCN(NC(=O)CN2C(=O)S/C(=C\c3c(Cl)cccc3Cl)C2=O)CC1 | . | 6.4 |
| 63 | NCCCOCC1CC1 | 3 | . |
| 64 | CC(C)(C)c1ccc(NC(=O)Nc2ccc3c(c2)OCCO3)cc1 | . | -0.6 |
| 65 | Cc1ccc(CNCCCn2ccnc2)cc1 | 3 | -1.1 |
| 66 | CCC(CC)c1nnc(NC(=O)c2ccc(OCC(=O)N3CCOCC3)c(OC)c2)s1 | 18 | . |
| 67 | CCc1cccc(C)c1NC(=O)c1cccc2c1C(=O)N(Cc1cccnc1)C2 | 11 | 0.5 |
| 68 | COc1ccc(CCNC(=O)c2c(Cl)nc3sccn23)cc1 | 2 | -0.8 |
| 69 | C1=CC(=C(c2ccccc2)c2ccccc2)C=C1 | . | -0.2 |
| 70 | O=C(Cc1c[nH]c2ccccc12)Nc1ccc(F)cc1 | -9 | . |
| 71 | CCOc1ccccc1C(=O)N(C)c1ccccc1 | 7 | -1.4 |
| 72 | Cc1ccsc1C(=O)Oc1ccc(F)cc1 | 4 | -2.0 |
| 73 | CCC(CC)C(=O)NCc1ccc2[nH]c3c(c2c1)CCCC3 | 15 | . |
| 74 | CC(NCC1COc2ccccc2O1)C(=O)Nc1ccc(S(N)(=O)=O)cc1 (stereo unspecified) | -17 | . |
| 75 | O=C1C(=Nc2ccc(Cl)cc2)c2ccccc2N1CN1CCc2ccccc2C1 | 15 | -2.3 |

Carrying on.
| cpd | canonical_smiles | Sa helicase inh | MgrA DNA FP |
| --- | --- | --- | --- |
| 76 | COC(=O)CSc1nc(C)nc2scc(-c3cccs3)c12 | -8 | . |
| 77 | CC(C)NCC(=O)Nc1ccc(-c2ccccc2)cc1 | -7 | . |
| 78 | O=C(c1cnn(-c2ccccc2)c1-n1cccc1)N1CCN(c2ccccc2)CC1 | -18 | . |
| 79 | Cc1ccc(S(=O)(=O)N2CCCC2)cc1 | . | 0.3 |
| 80 | Cc1cccc(/C=C2/Sc3ccccc3C2=O)c1 | . | -1.1 |
| 81 | CC(N)C(=O)N1CCN(c2nc(-c3ccccc3)c3cc([N+](=O)[O-])ccc3n2)CC1 (stereo unspecified) | . | -3.2 |

An excerpt; the hit share may differ from the screen's.
